Assay outcomes: PubChem BioAssay, National Center for Advancing Translational Sciences (NCATS)
EPAC2 agonist: qHTS for Agonist of cAMP-regulated guanine nucleotide exchange factor 4 (EPAC2): primary screen. 360,000 compounds, 0.079% hits. Potency, µM (top dose mostly 154 µM), for inactives: at the top dose activation, hits mostly activators. Rap guanine nucleotide exchange factor 4 (Homo sapiens), Q8WZA2. EPAC2 activation, biochemical qHTS; response scale: 100% = 6.5 mM cAMP response. AID 720711, 2013; note: nearly all actives have a fitted effect of over 50% in size
Target sequence (Q8WZA2 whole entry, looked up): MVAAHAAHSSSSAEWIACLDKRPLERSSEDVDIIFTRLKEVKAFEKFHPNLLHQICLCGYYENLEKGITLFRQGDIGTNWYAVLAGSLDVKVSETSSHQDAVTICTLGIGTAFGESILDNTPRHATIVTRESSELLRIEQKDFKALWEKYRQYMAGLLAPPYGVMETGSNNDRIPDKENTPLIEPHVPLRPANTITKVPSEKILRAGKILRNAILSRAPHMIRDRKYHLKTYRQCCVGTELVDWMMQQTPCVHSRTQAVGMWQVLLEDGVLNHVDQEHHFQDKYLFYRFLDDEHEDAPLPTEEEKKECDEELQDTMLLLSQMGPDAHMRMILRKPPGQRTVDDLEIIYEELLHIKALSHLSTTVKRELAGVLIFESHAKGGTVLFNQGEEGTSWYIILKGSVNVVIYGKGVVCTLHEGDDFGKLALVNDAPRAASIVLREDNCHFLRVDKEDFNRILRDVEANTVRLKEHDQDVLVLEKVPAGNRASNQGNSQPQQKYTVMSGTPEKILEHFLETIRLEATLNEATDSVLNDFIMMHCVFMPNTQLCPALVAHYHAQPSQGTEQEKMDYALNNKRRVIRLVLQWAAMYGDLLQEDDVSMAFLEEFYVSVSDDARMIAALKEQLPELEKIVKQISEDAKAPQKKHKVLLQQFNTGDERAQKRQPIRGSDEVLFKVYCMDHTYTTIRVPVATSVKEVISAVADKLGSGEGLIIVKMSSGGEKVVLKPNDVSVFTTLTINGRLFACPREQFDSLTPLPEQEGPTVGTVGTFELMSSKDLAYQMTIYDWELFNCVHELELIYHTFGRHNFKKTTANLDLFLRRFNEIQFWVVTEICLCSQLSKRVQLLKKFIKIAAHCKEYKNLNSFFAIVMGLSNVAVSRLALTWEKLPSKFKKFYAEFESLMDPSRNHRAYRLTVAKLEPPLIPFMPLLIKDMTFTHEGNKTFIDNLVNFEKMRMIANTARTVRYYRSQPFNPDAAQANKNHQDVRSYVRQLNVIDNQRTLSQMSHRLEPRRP
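Compounds were added across a concentration range to EPAC2 (100 nM), RAP1B-BODIPY-GDP (250 nM) and GDP (50 uM). After 5 min at room temperature, fluorescence was recorded at 5-min intervals for 30 min.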
FUS suppressor: qHTS for Suppressors of FUS Proteinopathy: Primary screen using FUS-linked yeast assay | Potency, µM (top dose mostly 76.6 µM), for the others: top-dose growth rescue (activation), usual class: activators | 390,000 compounds, 0.24% hits | S. cerevisiae FUS-expressing, growth rescue, OD600, 24 h;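 note: plate controls were DMSO vehicle for no effect and reference control for full effect; nearly all actives have a fitted effect of over 55% in size; some results filed as inactive show a strong effect at the top dose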
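Read-out: OD at 600 nm after 24hr at 30C, reporting rescue of FUS-induced yeast toxicity. Cells at OD 0.005 in galactose (2%) minimal medium; compounds tested in a dilution series; CP55940 titration from 92uM final as control.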
aSyn yeast inh: qHTS of alpha-syn Inhibitors. Potency, µM (titrated, usually from 46.1 µM), for the others: at the top dose growth rescue (activation), hits mostly activators. Yeast expressing alpha-synuclein, growth rescue, BacTiter-Glo, 24 h. AID 652106, 2013. 370,000 compounds, 0.14% hits; note: % of control where 0% means no effect; nearly all actives have a fitted effect of over 65% in size
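Galactose-induced alpha-syn yeast (OD600=0.02, raffinose-pregrown) + pinned cpd, 24 hr, 30 deg C; growth by BacTiter-Glo luminescence. Growth restoration scores as activation.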
EPAC1 ag: qHTS for Agonist of cAMP-regulated guanine nucleotide exchange factor 3 (EPAC1): primary screen; Rap guanine nucleotide exchange factor 3 (Homo sapiens), O95398; 360,000 compounds, 0.073% hits; Potency, µM (doses to about 154 µM), without a hit: at the highest dose activation, hits mostly activators; EPAC1 agonist qHTS, biochemical assay; response scale: 100% = response to 6.5 mM cAMP; note: nearly all actives have a fitted effect of over 60% in size
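EPAC1 100 nM, Rap1B–BODIPY-GDP 250 nM, unlabeled GDP 50 uM; compound titration; 5 min RT; kinetic read ex480/em540 at 5-min intervals ×30 min; data normalized to 6.5 mM cAMP agonist control.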
EPAC1 antagonist: qHTS for Antagonist of cAMP-regulated guanine nucleotide exchange factor 3 (EPAC1): primary screen | Potency, µM (highest dose often 115 µM), for inactives: at the highest dose activity change, negative = inhibition, usual class: inhibitors | Rap guanine nucleotide exchange factor 3 (Homo sapiens), O95398 | 360,000 compounds, 0.14% hits | EPAC1 GEF assay, Rap1b-BODIPY-GDP exchange fluorescence;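 note: plate controls were vehicle for no effect and positive control for full effect; nearly all actives have a fitted effect of over 50% in size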
EPAC2 antag: qHTS for Antagonist of cAMP-regulated guanine nucleotide exchange factor 2 (EPAC2): primary screen. Rap guanine nucleotide exchange factor 4 (Homo sapiens), Q8WZA2. EPAC2 GEF exchange of Rap1B-BODIPY-GDP, fluorescence. Potency, µM (top dose mostly 114 µM), without a hit: at the top dose activity, negative = inhibition, most hits filed as inhibitors. 360,000 compounds, 0.18% hits. AID 720708, 2013; note: % is set by controls: 0 for no effect and ±100 for the full control effect; nearly all actives have a fitted effect of over 45% in size; many of its hits are not listed in these tables
TDP43 rescue: qHTS of TDP-43 Inhibitors. 410,000 compounds, 1.8% hits. Potency, µM (top dose mostly 46.1 µM), for the others: at the top dose growth rescue (activation), actives largely listed as activators. TDP-43 expressing yeast growth rescue, BacTiter-Glo, 24 h. AID 652104, 2013; note: % of control where 0% means no effect; nearly all actives have a fitted effect of over 50% in size
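Readout is BacTiter-Glo luminescence of cell growth, so inhibitors register as activators. TDP-43-expressing yeast at OD600=0.02 in galactose medium, after raffinose pregrowth to mid-log, were incubated with compound for 24 hr at 30 deg C.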
Active calls of the source: *; ? = inconclusive; . = no result given; [ ] = dose if it differs, or a comment. Calls come from the whole dose curve; as a rule, active = well fitted curve in the direction sought with a large enough effect; inconclusive = small, poorly fitted or top-dose-only effect, or another doubt; inactive = no such curve, though single readings can be large; an effect the other way counts as inactive or inconclusive. Potency is the fitted concentration of half-maximal effect. Not all compounds are listed, so the mix of outcomes need not match the whole.

Labels used below – A = EPAC2 agonist; B = FUS suppressor; C = aSyn yeast inh; D = EPAC1 ag; E = EPAC1 antagonist; F = EPAC2 antag; G = TDP43 rescue
> CC1CN=C(N(Cc2ccccc2)C(=O)Nc2ccccc2)S1 (stereo not drawn)
  A: 2%	B: 7%	C: -5%	D: -3%	E: 19%	F: 6%	G: 1%
> COc1ccccc1NC(=S)N1CC(C)(C)C1=O
  A: 13%	B: -7%	C: 6%	D: 8%	E: 9%	F: -11%	G: ?
> COc1cccc(-c2cc(C(=O)Nc3cnn(Cc4ccc(F)cc4)c3)no2)c1
  A: -10%	B: 7%	C: 0%	D: -6%	E: -11%	F: -11%	G: -18%
> CN(C)CC(C)(C)CNC(=S)NCc1ccc2c(c1)OCO2
  A: 5%	B: -6%	C: -4%	D: 3%	E: -19%	F: -11%	G: -10%
> COc1ccc(N(CC(=O)NC2CC3CCC2C3)S(=O)(=O)c2ccccc2)cc1OC (stereo not drawn)
  A: 6%	B: 14%	C: -5%	D: -1%	E: -13%	F: -9%	G: -23%
> CC(Sc1nc2ccccc2c(=O)n1CC1CCCO1)C(=O)NC(C)c1ccccc1 (stereo not drawn)
  A: 3%	B: 16%	C: 1%	D: ?	E: -12%	F: -4%	G: 0%
> COc1ccc(CCC(=O)N2CCN(S(=O)(=O)c3ccc(C)cc3)CC2)cc1
  A: 1%	B: 6%	C: 2%	D: 2%	E: 12%	F: 4%	G: 27%
> COc1ccc(CNC(=O)C(C)Sc2nc3ccccc3c(=O)n2CC2CCCO2)cc1 (stereo not drawn)
  A: -1%	B: .	C: -5%	D: 2%	E: 9%	F: 7%	G: -3%
> COc1ccc(S(=O)(=O)N(CC(=O)N2CCOCC2)Cc2ccccc2)cc1C
  A: 7%	B: 26%	C: 1%	D: 2%	E: 1%	F: 4%	G: -30%
> O=C(CCN1C(=O)C2(OCCO2)c2ccccc21)c1ccccc1
  A: -8%	B: 19%	C: 17%	D: 0%	E: -15%	F: -5%	G: 18%
> Cc1nn(C)cc1S(=O)(=O)NCc1ccc2c(c1)OCO2
  A: 4%	B: 0%	C: 2%	D: 15%	E: -1%	F: 5%	G: 2%
> N#CCSc1nnc(CNc2cccc(Cl)c2)o1
  A: 6%	B: 8%	C: 4%	D: 0%	E: -7%	F: 4%	G: -12%
> CN(C)S(=O)(=O)c1ccc2c(c1)C(CC(=O)O)OC2=O (stereo not drawn)
  A: 6%	B: 14%	C: -5%	D: 5%	E: -8%	F: -5%	G: -5%
> O=C(c1ccco1)N1CCN(c2c(-c3ccccc3)c3cc(Cl)ccc3[nH]c2=O)CC1
  A: 7%	B: -8%	C: 3%	D: 30%	E: -10%	F: -6%	G: -5%
> COc1ccc(NC(=O)C(c2cc3c(cc2[N+](=O)[O-])OCO3)N2CCN(C=O)CC2)cc1 (stereo not drawn)
  A: 3%	B: 26%	C: -2%	D: 6%	E: 3%	F: 9%	G: -5%
> CC(=O)Nc1cc(C(=O)N2CCN(C)CC2)ccc1S(=O)(=O)c1ccc(C)cc1
  A: 5%	B: 13%	C: -4%	D: 5%	E: -16%	F: -22%	G: -13%
> CCN1CCN(C(=O)N[C@@H](C(=O)N[C@@H]2C(=O)N3C(C(=O)O)=C(CSc4nnnn4C)CS[C@H]23)c2ccc(O)cc2)C(=O)C1=O
  A: 6%	B: -16%	C: 13%	D: -17%	E: 1%	F: 5%	G: 28%
> Cc1nn(C)c(Oc2cccc(Cl)c2)c1C(=O)Nc1ccc(F)cc1
  A: 5%	B: 12%	C: 1%	D: 4%	E: 5%	F: 1%	G: 2%
> CCc1c(C)nc(SCC(=O)Nc2ccc(Br)cc2)[nH]c1=O
  A: 1%	B: -7%	C: -1%	D: -15%	E: -7%	F: -4%	G: 5%
> COC(=O)CCCCNC(=O)Nc1ccccc1
  A: 2%	B: 15%	C: 2%	D: 5%	E: -8%	F: -5%	G: -9%
> NNC(=O)c1ccc(COCC(F)(F)F)cc1
  A: 0%	B: -13%	C: 0%	D: -2%	E: 11%	F: 8%	G: 21%
> COC(=O)c1cc(C(=O)NNC(=O)c2ccc3c(c2)OCO3)cc([N+](=O)[O-])c1
  A: 12%	B: -14%	C: -5%	D: 5%	E: 0%	F: 1%	G: -8%
> c1ccc2c(c1)CCCN2Cc1nnc2n1CCCCC2
  A: 5%	B: 25%	C: 9%	D: 2%	E: 11%	F: 7%	G: -23%
> CC(Sc1nc2ccccc2c(=O)n1CC1CCCO1)C(=O)N(C)Cc1ccccc1 (stereo not drawn)
  A: 6%	B: 21%	C: 3%	D: -5%	E: -3%	F: 6%	G: 17%
> CCN1CCN(C(=O)CS(=O)Cc2nc(-c3ccc(OC)cc3)oc2C)CC1 (stereo not drawn)
  A: 7%	B: -17%	C: 0%	D: -11%	E: 17%	F: 10%	G: 9%

Further entries follow.
Labels used below – A = EPAC2 agonist; B = FUS suppressor; C = aSyn yeast inh; D = EPAC1 ag; E = EPAC1 antagonist; F = EPAC2 antag; G = TDP43 rescue
> COc1cccc(-c2cc(C(=O)NCc3ccccc3)no2)c1
  A: .	B: -17%	C: .	D: .	E: .	F: .	G: 0%
> Cc1cc(C)c(C(=O)c2ccccc2C(=O)O)c(C)c1
  A: 1%	B: -10%	C: -1%	D: -9%	E: -9%	F: 12%	G: -17%
> CCOC(=O)C1CCN(c2c(-c3ccccc3)c3cc(Cl)ccc3[nH]c2=O)CC1
  A: -21%	B: .	C: 2%	D: -1%	E: 11%	F: 10%	G: -36%
> CC1=C(/C=C/C(C)=N\NC(=O)c2ccncc2)C(C)(C)CCC1
  A: -2%	B: 3%	C: -1%	D: 6%	E: -16%	F: -8%	G: -14%
> O=c1c2cc(Cl)cc(Cl)c2nc2n1CCC2
  A: 2%	B: 4%	C: 2%	D: 0%	E: 7%	F: 3%	G: ?
> COc1ccc(N=CC2=C(O)CCCC2=O)cc1
  A: 2%	B: -6%	C: -4%	D: 0%	E: -10%	F: 0%	G: -1%
> CC1CN(C2CC(C)(C)NC(C)(C)C2)CCC1=O (stereo not drawn)
  A: -6%	B: -7%	C: -5%	D: 1%	E: 11%	F: 5%	G: 6%
> O=C1CCCC(=O)C1=C1SCCCS1
  A: -7%	B: .	C: 3%	D: -10%	E: 3%	F: 7%	G: -24%
> Cc1ccc(NC(=O)C(C)Sc2nnc(C)n2CC2CCCO2)cc1 (stereo not drawn)
  A: 3%	B: 9%	C: -3%	D: 2%	E: -6%	F: 5%	G: -3%
> Cc1cccc2sc(NC(=O)C3CC3)nc12
  A: 2%	B: -1%	C: -23%	D: -9%	E: -15%	F: 8%	G: 11µM*
> CN1CCN(CCC(=O)Nc2cccc(F)c2)CC1
  A: 5%	B: 36%	C: -2%	D: 0%	E: 21%	F: 20%	G: -21%
> Cc1cc(C(=O)NCc2ccccc2Cl)c2c(C)nn(-c3cccc(F)c3)c2n1
  A: .	B: -13%	C: .	D: .	E: .	F: .	G: 0%[9.22 µM]
> CNC(=O)NC(=O)Cn1cnc2sc(-c3ccccc3)cc2c1=O
  A: 5%	B: 16%	C: -5%	D: -2%	E: ?	F: -2%	G: -1%
> CC1=N/C(=C\c2ccc(OC(C)C)cc2)C(=O)N1c1ccc(C(=O)O)cc1
  A: 2%	B: -5%	C: 0%	D: 0%	E: 13%	F: -10%	G: 19%
> O=C(C(c1ccccc1)N1CCOCC1)N1CCOCC1 (stereo not drawn)
  A: -1%	B: 39%	C: -10%	D: -3%	E: 4%	F: 11%	G: -7%
> Cc1cccc(-c2nc3c4ccccc4nc(NCc4ccc(Cl)cc4)n3n2)c1
  A: .	B: 7%	C: .	D: .	E: .	F: .	G: 3%
> CCOC(=O)C1CCN(C(=O)CN(c2ccc(OC)c(OC)c2)S(=O)(=O)c2ccccc2)CC1
  A: 6%	B: 26%	C: 5%	D: 0%	E: -8%	F: 5%	G: 6%
> CC(Sc1nc(-c2ccccc2)nc2c1COC(C)(C)C2)C(=O)N1CCOCC1 (stereo not drawn)
  A: 11%	B: 8%	C: .	D: -1%	E: 6%	F: -1%	G: 8%
> O=C(Cn1ncc2ccccc21)N1CCN(c2cccc(C(F)(F)F)c2)CC1
  A: 1%	B: 23%	C: 0%	D: -4%	E: -2%	F: 0%	G: 0%
> COc1cc(NC(=O)C(CC(C)C)N2Cc3ccccc3C2=O)cc(OC)c1 (stereo not drawn)
  A: .	B: -6%	C: .	D: .	E: .	F: .	G: -6%
> O=C(CNC(=O)c1ccc(Br)cc1)OCC(=O)c1ccccc1
  A: 0%	B: .	C: 8%	D: -1%	E: -6%	F: 7%	G: 21%
> CCc1sc(C(=O)N2CCCN(C)CC2)cc1Br
  A: 11%	B: -1%	C: -1%	D: -7%	E: -11%	F: 20%	G: -1%
> CC(C)N(C(=O)COC(=O)CNC(=O)c1ccc(Br)cc1)c1ccccc1
  A: 10%	B: .	C: 2%	D: -9%	E: -23%	F: 7%	G: 7%
> COc1cccc(NC(=O)Cn2c(-c3nonc3N)nc3ccccc32)c1
  A: .	B: 17%	C: .	D: .	E: .	F: .	G: 1%
> CCC(=O)Nc1cc(-c2cc3ccccc3oc2=O)ccc1OC
  A: 4%	B: 9%	C: -4%	D: -5%	E: 1%	F: -6%	G: -14%
> O=C(COC(=O)CNC(=O)c1ccccc1)NCCNC(=O)COC(=O)CNC(=O)c1ccccc1
  A: 4%	B: .	C: 2%	D: -9%	E: -1%	F: 14%	G: ?
> CC(=O)c1ccc(N2CCN(C(=S)Nc3ccccc3C(F)(F)F)CC2)cc1
  A: 9%	B: 17%	C: 9%	D: -1%	E: -20%	F: -2%	G: ?
> Cc1cc(C)cc(OCC(=O)Nc2nc3ccc([N+](=O)[O-])cc3s2)c1
  A: -4%	B: 24%	C: 0%	D: 4%	E: -6%	F: -13%	G: -9%

Shown with values under each structure: three of the compounds above
Every second line gives: EPAC2 agonist	FUS suppressor	aSyn yeast inh	EPAC1 ag	EPAC1 antagonist	EPAC2 antag	TDP43 rescue
COc1ccc(N(CC(=O)NC2CC3CCC2C3)S(=O)(=O)c2ccccc2)cc1OC (stereo not drawn)
  6%	14%	-5%	-1%	-13%	-9%	-23%
CC(Sc1nc2ccccc2c(=O)n1CC1CCCO1)C(=O)NC(C)c1ccccc1 (stereo not drawn)
  3%	16%	1%	?	-12%	-4%	0%
COc1ccc(CCC(=O)N2CCN(S(=O)(=O)c3ccc(C)cc3)CC2)cc1
  1%	6%	2%	2%	12%	4%	27%
